Screening results deposited in PubChem BioAssay by several laboratories.
E coli growth – E. coli growth inhibition, primary screen, OD600 | Escherichia coli growth, 23 h; hits give low values | 330,000 compounds, 0.21% hits | OD600 absorbance (concentration not given with the values);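 active means OD600 absorbance below the run mean of sample wells minus 3.6 SD, in any replicate, cut at about 0.56 in these data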;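 further: stock transfer was 300 nL into about 60 µL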
LANA-H2B inh – blockers of LANA interaction with H2A/H2B – biochemical, FP readout, HTS, primary screen. Protein LANA1 (Human herpesvirus 8 type P (isolate GK18)), Q9QR71. cell-free LANA-H2A/H2B peptide, fluorescence polarization. inhibition, % (concentration not given with the values). 320,000 compounds, 0.6% hits. AID 2629, 2010; in the data active means inhibition mostly above about 10%, no sharp cut-off; inactive means mostly below about 6.7%;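 further: stock transfer was 7.5 nL into about 10 µL; 0% = median of vehicle wells and 100% = median of positive control wells; one replicate is shown; the record names a cut of 25% in any replicate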
FGF22 binding – binders of human FGF22 protein, primary screen, FGF22 synaptogenesis inhibitor project, biophysical, thermal shift, single point | recombinant FGF22 thermal shift, SYPRO orange fluorescence; percent of sucrose octasulfate shift, DMSO zero | calls only at 9.99 µM | 340,000 compounds, 1.5% hits;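 active means melting point raised past a set limit in the mean and every replicate; three in four hits are not shown here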
Target sequence (Q9HCT0 whole entry, looked up): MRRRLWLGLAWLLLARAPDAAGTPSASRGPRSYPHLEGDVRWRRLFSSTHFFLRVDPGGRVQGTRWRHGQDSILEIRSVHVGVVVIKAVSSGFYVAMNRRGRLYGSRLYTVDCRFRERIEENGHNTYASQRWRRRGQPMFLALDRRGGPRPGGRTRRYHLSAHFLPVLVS
* marks the source's active call; other numbers are inactive results; i = inactive; · = not tested or not shown; + = active, no number; & = joins results of further samples. A portion of the library, so the mix of outcomes need not match the whole.

Every second line gives: FGF22 binding | E coli growth | LANA-H2B inh
COCC(=O)Nc1ccc2c(c1)OC[C@@H](C)N(C(=O)CN1CCOCC1)C[C@@H](C)[C@H](OC)CN(C)C2=O
→ i | · | ·
CCCC#Cc1ccc2c(c1)O[C@H](CN(C)C(=O)Nc1ccccc1F)[C@H](C)CN([C@@H](C)CO)S2(=O)=O
→ i | · | ·
N#C[C@@H]1N[C@@H](CO)[C@@H]1c1ccc(C#CC2CCCCC2)cc1
→ i | · | ·
CO[C@H]1CN(C)C(=O)c2cc(NS(=O)(=O)CC(F)(F)F)ccc2OC[C@H](C)N(Cc2ccccn2)C[C@H]1C
→ i | · | ·
C[C@H]1Cn2cnc(C(=O)N3CCN(c4ccccc4)CC3)c2C(=O)N1
→ i | · | ·
COc1ccc(S(=O)(=O)Nc2ccc3c(c2)C(=O)N([C@@H](C)CO)C[C@@H](C)[C@@H](CN(C)Cc2ccc(C(F)(F)F)cc2)O3)cc1
→ i | · | ·
C[C@@H]1CN([C@@H](C)CO)C(=O)c2cccc(NC(=O)Nc3ccc(F)cc3)c2O[C@H]1CN(C)C(=O)Nc1ccccc1
→ i | · | ·
C[C@@H]1CN([C@H](C)CO)C(=O)c2cc(C#CC3CC3)cnc2O[C@@H]1CN(C)Cc1ccccn1
→ i | · | ·
Cc1ccc(S(=O)(=O)N(C)C[C@H]2Oc3c(NC(=O)NC4CCCCC4)cccc3C(=O)N([C@@H](C)CO)C[C@H]2C)cc1
→ i | · | ·
CCCC(=O)Nc1ccc2c(c1)C(=O)N(C)C[C@H](OC)[C@@H](C)CN(Cc1ccccc1F)[C@H](C)CO2
→ i | · | ·
C[C@@H]1CCCCO[C@@H](CN(C)S(=O)(=O)c2ccccc2)[C@@H](C)CN([C@H](C)CO)C(=O)c2cc(NS(C)(=O)=O)ccc2O1
→ i | · | ·
C[C@@H]1CN([C@@H](C)CO)S(=O)(=O)c2ccc(C#Cc3ccc(F)cc3)cc2O[C@@H]1CN(C)C(=O)NC1CCCC1
→ i | · | ·
CN1c2ccc(Br)cc2[C@H]2[C@H](CCN2C(=O)Nc2ccc(F)cc2)[C@@H]1CO
→ i | · | ·
C[C@@H]1CN([C@H](C)CO)C(=O)c2cc(NC(=O)Nc3ccc(C(F)(F)F)cc3)ccc2O[C@@H](C)CCCCO[C@@H]1CN(C)C(=O)NC1CCCCC1
→ i | · | ·
C[C@@H]1CN([C@H](C)CO)C(=O)Cc2cc(NC(=O)C3CC3)ccc2O[C@@H]1CN(C)S(=O)(=O)c1ccc(F)cc1
→ i | · | ·
C[C@H](CO)N1C[C@H](C)[C@@H](CN(C)S(=O)(=O)c2cn(C)cn2)Oc2ccc(NC(=O)Nc3ccc(F)cc3)cc2C1=O
→ i | · | ·
CC(C)NC(=O)Nc1ccc2c(c1)CC(=O)N([C@H](C)CO)C[C@@H](C)[C@H](CN(C)Cc1ccc(C(=O)O)cc1)O2
→ i | · | ·
CC(=O)NC[C@@H]1[C@@H](c2ccccc2)[C@@H](CO)N1C(=O)Cc1cccnc1
→ + | · | ·
CO[C@@H]1CC[C@H]2CCN(C)C(=O)C[C@H](c3ccccc3)CN(C)C(=O)c3cc(C#N)ccc3OC[C@H]1O2
→ i | · | ·
O=C(NCC[C@H]1CC[C@@H](NC(=O)c2ccc3c(c2)OCO3)[C@@H](CO)O1)Nc1cc(F)ccc1F
→ i | · | ·
O=C(Cc1c[nH]c2ccccc12)Nc1ccc(Nc2cccnc2)c(-c2ccc(OC(F)(F)F)cc2)c1
→ i | · | ·
O=C(C[C@@H]1C[C@@H]2c3cc(NC(=O)c4ccc5c(c4)OCO5)ccc3O[C@@H]2[C@H](CO)O1)NCCc1ccccc1
→ i | · | ·
C[C@@H](CO)NC(=O)c1[nH]cnc1C(=O)Nc1ccccc1
→ i | · | ·
CC(=O)N(C)C[C@H]1Oc2cc(-c3cccc(C#N)c3)ccc2S(=O)(=O)N([C@@H](C)CO)C[C@@H]1C
→ i | · | ·
CN1c2ccc(C#Cc3cccnc3)cc2[C@H]2[C@H](CCN2S(=O)(=O)c2ccc(F)cc2)[C@@H]1CO
→ i | · | ·
COCC(=O)N(C)C[C@H]1Oc2ncc(-c3ccc(C)cc3)cc2C(=O)N([C@H](C)CO)C[C@@H]1C
→ i | · | ·
CO[C@H]1CN(C)C(=O)c2ccc(NS(=O)(=O)c3cn(C)cn3)cc2OC[C@@H](C)NC[C@@H]1C
→ i | · | ·
C[C@@H]1CN([C@@H](C)CO)S(=O)(=O)c2ccc(C#CCN(C)C)cc2O[C@H]1CN(C)Cc1cccnc1
→ i | · | ·
C[C@H](CO)N1C[C@H](C)[C@@H](CN(C)C(=O)Nc2ccc3c(c2)OCO3)OCCCC[C@H](C)Oc2ccc(NC(=O)c3ccncc3)cc2C1=O
→ i | · | ·
C[C@@H]1CN([C@@H](C)CO)C(=O)c2cc(NC(=O)Nc3ccc4c(c3)OCO4)ccc2O[C@@H]1CN(C)C(=O)Nc1ccc2c(c1)OCO2
→ i | · | ·
C[C@H]1CN([C@@H](C)CO)S(=O)(=O)c2ccc(-c3ccccc3F)cc2O[C@H]1CN(C)C(=O)C1CC1
→ i | · | ·
COCC#Cc1ccc([C@@H]2[C@H](CO)N3CCCCN(S(=O)(=O)c4ccccc4C)C[C@@H]23)cc1
→ i | · | ·
C[C@@H]1CN([C@@H](C)CO)C(=O)Cc2cc(NC(=O)CCN3CCOCC3)ccc2O[C@@H]1CN(C)Cc1ccncc1
→ i | · | ·
CCCC(=O)N(CCc1c[nH]c2ccccc12)[C@@H]1CC(C(=O)NCCO)=C[C@H](Oc2c(I)cc(CO)cc2OC)[C@H]1O
→ i | · | ·
C[C@H]1CN([C@@H](C)CO)C(=O)c2cccc(NC(=O)Nc3cccc4ccccc34)c2O[C@H]1CN(C)Cc1ccc2c(c1)OCO2
→ i | · | ·
Cc1ccc(S(=O)(=O)N(C)C[C@H]2Oc3cc(Br)ccc3S(=O)(=O)N([C@@H](C)CO)C[C@@H]2C)cc1
→ i | · | ·
CC(C)NC(=O)Nc1cccc2c1O[C@H](CN(C)S(=O)(=O)c1ccc(F)cc1)[C@H](C)CN([C@@H](C)CO)C2=O
→ i | · | ·
CO[C@H]1CN(C)C(=O)c2ccc(NC(=O)c3cc(C)on3)cc2OC[C@H](C)N(C)C[C@H]1C
→ i | · | ·
COCC(=O)N1C[C@H]2[C@@H](c3ccccc31)[C@@H](CO)N2C(=O)c1ccccc1F
→ i | · | ·
COCC(=O)N1C[C@H](C)[C@@H](OC)CN(C)C(=O)c2ccc(NC(=O)Nc3ccccc3)cc2OC[C@@H]1C
→ i | · | ·
C[C@@H]1CN([C@@H](C)CO)C(=O)c2cc(NC(=O)Nc3ccc(F)cc3)ccc2O[C@@H](C)CCCCO[C@@H]1CN(C)Cc1ccccc1
→ i | · | ·
C[C@H](CO)N1C[C@H](C)[C@@H](CN(C)C(=O)CC2CC2)Oc2ncc(C#C[C@@H](C)O)cc2C1=O
→ i | · | ·
C[C@@H]1CN([C@H](C)CO)C(=O)c2cc(NS(=O)(=O)c3cccs3)ccc2O[C@@H]1CN(C)C
→ i | · | ·
O=C(Cc1cc(=O)[nH][nH]1)N/N=C/c1ccccc1Cl
→ i | · | 3.6
O=[N+]([O-])c1cc(/C=N/Nc2nc3ccccc3[nH]2)c(O)cc1O
→ i | · | 3.9
CC=CC1=CC(=O)CC(c2ccc(Cl)cc2)C1 (stereo unspecified)
→ · | 0.71 | ·
CC1CN(C2CCCCC2)C(=O)C1CC(=O)NCc1ccccc1 (stereo unspecified)
→ · | 0.68 | ·
CCOC1OC(C(=O)NCc2nc3ccccc3[nH]2)=CC(C)C1CCCO (stereo unspecified)
→ · | 0.65 | ·
CC(=O)NC(=Cc1ccc2c(c1)OCO2)C(=O)NCCO
→ · | 0.68 | ·
CNCC(NCC(NCCCc1ccccc1)c1ccccc1)C(C)O (stereo unspecified)
→ · | 0.66 | ·
Cc1ccccc1-c1nnn(CC(N)=NO)n1
→ · | 0.67 | ·
O=S(=O)(N=C(Nc1cccc2ccccc12)c1ccccc1)c1cccs1
→ · | 0.7 | ·
C=C1CCN(C(C(=O)NCc2ccc(Cl)cc2)C(C)C)S(=O)(=O)c2ccccc21 (stereo unspecified)
→ · | 0.69 | ·
CCC1CCCCN1C(=O)NC(CCSC)C(=O)OC (stereo unspecified)
→ · | 0.71 | ·
C#CCNC(=O)C1=CC(c2csc3ccccc23)CC(OCCCCO)O1 (stereo unspecified)
→ · | 0.68 | ·
Fc1ccc(CSc2nncn2NCC=Cc2ccccc2)cc1
→ · | 0.66 | ·
CC1CN(C(C)CO)C(=O)c2cc(NC(=O)C3CC3)ccc2OC1CN(C)S(C)(=O)=O (stereo unspecified)
→ · | 0.68 | ·
CN1CC2C3C(=O)N(Cc4ccccc4)C(=O)C3[C@](Cc3ccccc3)(C1=O)N2C(=O)c1ccc(C(F)(F)F)cc1 (stereo partly specified)
→ · | 0.67 | ·
C=C1CCN(C(Cc2ccccc2)C(=O)NCCCc2ccccc2)S(=O)(=O)c2ccccc21 (stereo unspecified)
→ · | 0.71 | ·
CNCC(Cc1ccccc1)NCC(CC1CCCCC1)NCCCc1ccccc1 (stereo unspecified)
→ · | 0.47* | ·

Next section
Every second line gives: FGF22 binding | E coli growth | LANA-H2B inh
CC(C)(C)OC(=O)N1CCC(NC(=O)c2[nH]cnc2C(=O)NC(Cc2ccccc2)C(=O)OCc2ccccc2)CC1 (stereo unspecified)
→ · | 0.67 | ·
CC1CN(C(C)CO)C(=O)c2cccc(N(C)C)c2OC1CN(C)Cc1ccncc1 (stereo unspecified)
→ · | 0.62 | ·
COCC=CC1=CC2=CC(=O)C(C)(OC(=O)c3cnc4ccccc4n3)C(=O)C2=CN1CCCCO (stereo unspecified)
→ · | 0.7 | ·
C=CS(=O)(=O)N(Cc1ccccc1Br)C(CO)Cc1ccccc1 (stereo unspecified)
→ · | 0.65 | ·
CC=C(C)C(=O)OC(c1cc2ccc(=O)oc2cc1OC)C(O)C(C)(C)O (stereo unspecified)
→ · | 0.7 | ·
CC(N)=C(C#N)C(=O)COc1ccc(Cl)cc1Cl
→ · | 0.69 | ·
C=CCC(CC(=O)NC(CO)Cc1ccccc1)C(=O)NCC(OC(=O)C(CC=C)CC(=O)OC(C)(C)C)c1ccccc1 (stereo unspecified)
→ · | 0.63 | ·
COc1cc(C2OCC3C(c4ccc(OC5OC(CO)C(O)C(O)C5O)c(OC)c4)OCC23)ccc1OC1OC(CO)C(O)C(O)C1O (stereo unspecified)
→ · | 0.7 | ·
CCN1C(=NCCOC)NC(c2ccccc2)C(C(=O)OC)C1C (stereo unspecified)
→ · | 0.66 | ·
Cc1ccc(S(=O)(=O)N2C(c3ccc(C(C)C)cc3)CC=C(C(=O)O)C2c2ccc(F)cc2)cc1 (stereo unspecified)
→ · | 0.69 | ·
O=C(C1=CC(c2csc3ccccc23)CC(OCCCCO)O1)N1CCOCC1 (stereo unspecified)
→ · | 0.67 | ·
CC(C(=O)CC(=O)OC(C)(C)C)C(O)c1ccccc1 (stereo unspecified)
→ · | 0.69 | ·
C#CCOCCOCCOCCNc1nc(N2CCN(C(=O)C(CCC(=O)O)n3cc(C(N)Cc4ccc(O)cc4)nn3)CC2)nc(N2CCN(C(=O)C(CCCCN)n3cc(C(N)C(C)CC)nn3)CC2)n1 (stereo unspecified)
→ · | 0.7 | ·
CCOc1c2ccc(C(=O)NC(C)C3CCCCC3)cc2nn1CCOC (stereo unspecified)
→ · | 0.72 | ·
Cc1nn(Cc2ccc(Cl)cc2Cl)c(Cl)c1C=CC(=O)OCC(=O)NCC(F)(F)F
→ · | 0.71 | ·

Marked active in FGF22 binding, of those listed so far:
| Molecule | FGF22 binding | LANA-H2B inh |
| --- | --- | --- |
| CC(=O)NC[C@@H]1[C@@H](c2ccccc2)[C@@H](CO)N1C(=O)Cc1cccnc1 | + | · |

The list continues.
Every second line gives: FGF22 binding | E coli growth | LANA-H2B inh
CCOC(=O)C1C2COc3ccccc3C2N2C(=O)N(c3ccc(F)cc3)C(=O)[C@]12C (stereo partly specified)
→ · | 0.66&0.7 | ·
CC(C)CC(NC(=O)c1[nH]cnc1C(=O)NC(C)c1ccccc1)C(=O)OC(C)(C)C (stereo unspecified)
→ · | 0.64&0.65 | ·
CC1CN(C(C)CO)C(=O)Cc2cc(NC(=O)Nc3cccc4ccccc34)ccc2OC1CN(C)Cc1ccc(C(F)(F)F)cc1 (stereo unspecified)
→ · | 0.65 | ·
O=C1C(=Cc2cccs2)N=C(c2cccs2)N1Nc1ccccc1
→ · | 0.67 | ·
[O-]C1=N[N+](=Cc2ccc(Cl)cc2)CC1
→ · | 0.7 | ·
COc1ccc(C2CC(=O)C=C(c3cc4ccccc4s3)C2)cc1OC (stereo unspecified)
→ · | 0.64 | ·
CC(C=Cc1ccc2c(c1)OCO2)=NNC(=O)c1cccnc1
→ · | 0.68 | ·
CC(=O)C1CCC2C3C=CC4=CC(=O)CC[C@@]4(C)C3CC[C@]12C (stereo partly specified)
→ · | 0.69 | ·
CC(C)CC1CN=C(N(C)C)N1CC(C)C (stereo unspecified)
→ · | 0.7 | ·
CCN(CC)CCCN=C1NC(c2cccc(C(F)(F)F)c2)C(C(=O)OC)=C(C)N1CC (stereo unspecified)
→ · | 0.67 | ·
CC1CN(C(C)CO)C(=O)c2cccc(NC(=O)C3CC3)c2OC1CN(C)Cc1ccncc1 (stereo unspecified)
→ · | 0.72 | ·
CC1(C)c2[nH]c3ccccc3c2CC2C(=O)N(Cc3ccco3)C(=O)N21 (stereo unspecified)
→ · | 0.67 | ·
